# High-throughput results from PubChem.
# NPYLR7 ag – agonists of mosquito NPYLR7 receptor, primary screen, cell-based, Aedes aegypti, calcium fluorescence, mosquito biting behavior. 270,000 tested, 0.15% active. activation, % at 10 µM. HEK293T NPYLR7/Galpha15, GCaMP6s calcium fluorescence; in the data active means activation above about 40%;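 further: 0% = vehicle and 100% = reference agonist at the receptor; some compounds past the cut are filed as inactive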
# NPYLR7 ag max-min – recorded beside NPYLR7 ag, whose call it bears; activation, %; measured here: Max-Min RFU normalised activation; some inactives read as strong as hits;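 span of the calcium signal over five minutes; 0% = vehicle and 100% = native peptide agonist; compound fluorescence can raise it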
# Starred values were filed as active, the others as inactive; & = joins results of further samples. This is a subset; the hit share may differ from the screen's.
SMILES,NPYLR7 ag,NPYLR7 ag max-min
CC(=O)NCc1ccc(C(=O)N2CCCCCC2C2CCCCC2)o1 (stereo not drawn),8,14
COC(=O)C1CCN(C(c2ccccc2Cl)C2Sc3nc(-c4ccco4)nn3C2=O)CC1 (stereo not drawn),-6,-8
COc1cccc(Oc2ncnc3sc4c(c23)CCC4)c1,0,0
Cc1cc(-n2cnnc2)ncc1-c1cccc2ccnn12,26,16
Cc1ccc2c(CC(=O)N3CCCC(C(=O)c4ccc5c(c4)OCO5)C3)cc(=O)oc2c1 (stereo not drawn),-3,-4
CCNC(=O)C1Cc2ccccc2N1C(=O)Nc1ccccc1 (stereo not drawn),-14,-19
O=C(Nc1ccnn1C1CCCCC1)C1CC1c1cccc(F)c1 (stereo not drawn),-24,-25
Cc1ccc(-c2nc(OCC(C)C)nn2-c2ccc(NC(=O)c3cccc4ccccc34)cc2)cc1,13,15
O=C(NCCCOc1cccnc1)C1CCC(O)CC1 (stereo not drawn),-6,-10
COC(=O)CCCCC(=O)NCc1ccc(-c2ncc(-c3ccc(OC)cc3)[nH]2)cc1,-5,-7
CCCN(CC)c1ccc(C(=O)O[C@H]2C(=O)OCC2(C)C)cc1,2,-1
COCC(=O)Nc1ccc(Nc2ccc(-n3nc(C)c(C)c3C)nn2)cc1,-4,-8
CC(OC(=O)c1cc(Cl)c(O)c(Cl)c1)c1ccc(F)cc1 (stereo not drawn),3,0
COCCNC(=S)NN=CC1CCCCC1,7,5
CN(C(=O)c1ccccc1OCc1ccncc1)c1ccccc1,11,7

# The final 2 records of the section before are carried over, then new ones follow.
SMILES,NPYLR7 ag,NPYLR7 ag max-min
COCCNC(=S)NN=CC1CCCCC1,7,5
CN(C(=O)c1ccccc1OCc1ccncc1)c1ccccc1,11,7
CCCN(CC1CC1)C(=O)c1ccc2ccccc2c1O,5,3
CC1C(=O)N(c2ccccc2Cl)CCN1C(=O)COc1ccc(Cl)cc1 (stereo not drawn),-14,-10
O=C(c1ccc(Cl)cc1)C1CCCN(C(=O)c2cc3ccccc3oc2=O)C1 (stereo not drawn),0,-2
COc1c(F)c(F)c(-c2csc(N)n2)c(F)c1F,15,7
COCC1CN(Cc2ccc3c(c2)OCO3)C(=O)c2cccnc2O1 (stereo not drawn),-1,11
COC(CC(=O)O)c1nc2ccccc2s1 (stereo not drawn),0&1&2,7&7&-2
CC(=O)Nc1cccc(Oc2nc(NCCN(C)C)nc3ccsc23)c1,4,0
COCc1cc(C)n(CC(=O)N/N=C\c2cc([N+](=O)[O-])ccc2Cl)c(=O)c1C#N,0,-1
Cc1ccc(C2=NN(C(=O)CC#N)C(O)(C(F)(F)F)C2)cc1 (stereo not drawn),-9,-9
CC(NS(C)(=O)=O)C(=O)NC1c2ccccc2CC1C (stereo not drawn),-7,-8
Clc1ccccc1-c1nc2c(NCCc3ccccc3)nccc2[nH]1,-2,-7
Cn1c(O)c(N=NC(=O)c2cc3ccccc3cc2O)c2ccccc21,2,-4
Cc1ccc(NC(=O)Nc2ccc(N3CCCC3)c(C(=O)NCc3ccc(F)cc3)c2)cc1Cl,-3,4
CCCCCCCC(=O)Nc1ccc(-n2nc(OCC(C)C)nc2-c2ccc(C)cc2)cc1,10,18
CC(NC(=O)CCc1nnc(CCc2c[nH]c3ccccc23)o1)c1ccccc1Cl (stereo not drawn),-3,-4

# 20 of these compounds in a different format:
# Every second line gives: NPYLR7 ag | NPYLR7 ag max-min
- CCCN(CC)c1ccc(C(=O)O[C@H]2C(=O)OCC2(C)C)cc1
 : 2 | -1
- COCC(=O)Nc1ccc(Nc2ccc(-n3nc(C)c(C)c3C)nn2)cc1
 : -4 | -8
- CC(OC(=O)c1cc(Cl)c(O)c(Cl)c1)c1ccc(F)cc1 (stereo not drawn)
 : 3 | 0
- COCCNC(=S)NN=CC1CCCCC1
 : 7 | 5
- CN(C(=O)c1ccccc1OCc1ccncc1)c1ccccc1
 : 11 | 7
- CCCN(CC1CC1)C(=O)c1ccc2ccccc2c1O
 : 5 | 3
- CC1C(=O)N(c2ccccc2Cl)CCN1C(=O)COc1ccc(Cl)cc1 (stereo not drawn)
 : -14 | -10
- O=C(c1ccc(Cl)cc1)C1CCCN(C(=O)c2cc3ccccc3oc2=O)C1 (stereo not drawn)
 : 0 | -2
- COc1c(F)c(F)c(-c2csc(N)n2)c(F)c1F
 : 15 | 7
- COCC1CN(Cc2ccc3c(c2)OCO3)C(=O)c2cccnc2O1 (stereo not drawn)
 : -1 | 11
- COC(CC(=O)O)c1nc2ccccc2s1 (stereo not drawn)
 : 0&1&2 | 7&7&-2
- CC(=O)Nc1cccc(Oc2nc(NCCN(C)C)nc3ccsc23)c1
 : 4 | 0
- COCc1cc(C)n(CC(=O)N/N=C\c2cc([N+](=O)[O-])ccc2Cl)c(=O)c1C#N
 : 0 | -1
- Cc1ccc(C2=NN(C(=O)CC#N)C(O)(C(F)(F)F)C2)cc1 (stereo not drawn)
 : -9 | -9
- CC(NS(C)(=O)=O)C(=O)NC1c2ccccc2CC1C (stereo not drawn)
 : -7 | -8
- Clc1ccccc1-c1nc2c(NCCc3ccccc3)nccc2[nH]1
 : -2 | -7
- Cn1c(O)c(N=NC(=O)c2cc3ccccc3cc2O)c2ccccc21
 : 2 | -4
- Cc1ccc(NC(=O)Nc2ccc(N3CCCC3)c(C(=O)NCc3ccc(F)cc3)c2)cc1Cl
 : -3 | 4
- CCCCCCCC(=O)Nc1ccc(-n2nc(OCC(C)C)nc2-c2ccc(C)cc2)cc1
 : 10 | 18
- CC(NC(=O)CCc1nnc(CCc2c[nH]c3ccccc23)o1)c1ccccc1Cl (stereo not drawn)
 : -3 | -4

# Following part
SMILES,NPYLR7 ag,NPYLR7 ag max-min
O=C(Nc1ccccc1O)c1cc(S(=O)(=O)N2CCCCC2)ccc1Cl,-16,-23
CCCCCn1c(C(C)NC(C)=O)nc2ccccc21 (stereo not drawn),7,11
O=C(CSc1nc2c(c(=O)n1-c1ccccc1)SCC2)N1CCc2ccccc21,-1,-4
COc1cc(OC)c(CN2CCN(C)C(C(=O)O)C2)cc1Cl (stereo not drawn),1,2
CCOC(=O)N1CCC(NCCc2nc(C)c(C)s2)CC1,10,8
COc1ccc(C2C3=C(CC(C)(C)CC3=O)OC(=N)C2C#N)cc1 (stereo not drawn),5,-2
COc1ccc(OC)c(C2CCN(Cc3cccs3)C2)c1 (stereo not drawn),-2,-2
NCCC12CC3CC(CC(C3)C1)C2,-2,-5
CSc1ccc(/C=C2\C(=N)N3N=CSC3=NC2=O)cc1,-1,-2
CCS(=O)(=O)Oc1cccc(CN(CCOC)S(=O)(=O)c2ccc(C)cc2)c1,-1,-4
O=C(c1ccc(Cl)cc1Cl)N(Cc1cccc(Cl)c1)Cc1nc2cc(Cl)ccc2o1,-1,-10
C=CCN(Cc1ccccc1Cl)C(=O)[C@H](N)Cc1ccccc1,-3,-6
CC(Oc1ccc(Cl)cc1)C(=O)NC(C)c1cccs1 (stereo not drawn),2,2
CC(C)(C)c1ccc(OCCCC(=O)NCc2ccc(S(=O)(=O)N3CCOCC3)s2)cc1,13,7
O=C(Nc1cccc(C2SCC(=O)N2c2ccc(F)cc2F)c1)C1CC1 (stereo not drawn),1,9
COc1ccc2nc(-c3ccc(C)c(NC(=O)COc4ccccc4)c3)cn2n1,-7,-12
Cc1cc2c(cc1NS(=O)(=O)C(F)(F)F)NC(=O)CO2,6,3
O=C(c1ccc(N2CCCCC2)cc1)N1CCC(CO)(Cc2ccccc2Cl)CC1,22,9
CC(CN(C)Cc1cc2c(cc1Cl)OCO2)N1CCOCC1 (stereo not drawn),18,6
COc1cc2c(cc1CNCc1nnc3n1CCCCC3)OC(C)C2 (stereo not drawn),0,12
CCOC(=O)N1CCN(C(=O)CSc2nc(=O)[nH]c3c2CCCC3)CC1,-3,-7
CCOc1ccccc1OCC(=O)N1CCc2cc([N+](=O)[O-])ccc21,15,7
COc1cc2c(cc1OC)C(c1ccccc1Cl)N(C(=O)Nc1cccc(C)c1)CC2 (stereo not drawn),15,3
Cc1nc2ccc(NC(=S)NC3CC4CCC3C4)cc2s1 (stereo not drawn),3&1,1&-2
CC(C)c1nsc(N(C)C2CCC2)n1,-8,-9
CC(C)c1ccc(OCC2c3ccsc3CCN2C(=O)CN(CC2CCCO2)C(=O)c2ccccc2Cl)cc1 (stereo not drawn),-2,4
COc1ccc(CC(=O)N2CCc3c(sc4[nH]c(=O)n(C5CCCCC5)c(=O)c34)C2)cc1C,5,1
CCCNC(=O)C1(C)CCN(Cc2ccc(-c3ccccn3)cc2)C1 (stereo not drawn),-1,-2
Cc1cccc2sc(N(CCN(C)C)C(=O)c3cccc(S(C)(=O)=O)c3)nc12,1,-5
COc1ccc(C(O)c2ncc(-c3ccc4ccccc4c3)[nH]2)cc1 (stereo not drawn),-2,-4
Cc1cc(C)cc(N2CCN(C(=O)CS(C)(=O)=O)CC2=O)c1,1,-1
O=C(NC1CCCCC1)c1cnn2c(C(F)(F)F)cc(-c3ccc(Br)cc3)nc12,3,1
C/C(=C\c1ccco1)CN1CCN(c2cc(C)nc(-c3cccnc3)n2)CC1,19,7
Cc1nnc2sc(SCc3ccc(Br)cc3)nn2c1=O,-1,-4
Cn1cccc1C(=O)Nc1[nH]ncc1-c1ccccc1Br,-1,35
CCCCCn1c(N2CCN(Cc3ccc(Br)cc3)CC2)nc2c1c(=O)[nH]c(=O)n2C,1,9
CC(C)(C)NC(=O)COc1ccc(C2CC(=O)Nc3[nH]ncc32)cc1 (stereo not drawn),8,8
Cc1cccc(CN2C(=O)C3(SCCN3C(=O)Nc3ccc(Cl)cc3)c3cc(F)ccc32)c1 (stereo not drawn),3,5
NC(=O)CSc1nc(=O)n(CC2CCCO2)c2c1CCC2 (stereo not drawn),-2,-7
CS(=O)(=O)Nc1ccc(-c2nc3cccnc3s2)cc1,-4,-7
Cc1nc2c(-c3ccc(Cl)cc3)c(C)[nH]n2c(=O)c1C,4,3
COc1ccc2nc(-c3ccc(C)c(NC(=O)c4ccccc4)c3)cn2n1,-9,-15
CCCCNC(=O)NCCN1CCN(c2nc(Cc3cccc(OC)c3)ns2)CC1,-9,-13
COc1ccc(C2c3cccn3CCCN2Cc2ccccc2C(F)(F)F)c(OC)c1OC (stereo not drawn),0,12
CC(Cc1cccs1)NC(=O)c1cccc(NCC(=O)O)c1 (stereo not drawn),3,4
Nc1ccc2nnc(C(F)(F)F)n2n1,-3,-3
CCCn1cc(C(=O)Nc2cccc(C)n2)c2nn(-c3ccccc3)c(=O)c-2c1,11,8
COC(=O)C(NS(=O)(=O)c1c(C)nn(C)c1Cl)c1cc(F)ccc1F (stereo not drawn),0,-2
Cc1cc(O)c(C(c2ccncc2)N2CCN(c3ccccn3)CC2)c(=O)n1Cc1cccnc1 (stereo not drawn),9,1
COCCCNC(=O)C(NC(=O)c1cccc(C)c1)C1CCN(C(=O)c2cccc(OC)c2)CC1 (stereo not drawn),-3,4
Cc1ccc(SCCCn2cnc3ccccc32)cc1,1,0
COc1cc(OC)c(NC(=O)CN(C)CCO)cc1Cl,6,4
CN1CCN(C(CC(=O)Nc2ccc(N=Nc3ccccc3)cc2)C(=O)O)CC1 (stereo not drawn),3,2
CC(C)(C)c1cc2nc(-c3ccccc3)cc(C(=O)N3CCN(c4ccc([N+](=O)[O-])cc4)CC3)n2n1,10,7
O=S(Cc1ccccc1)Cc1c(Cl)cccc1Cl (stereo not drawn),-2,-5
CN(C)CCN(C(=O)c1ccc(F)cc1)c1nc2ccc(S(C)(=O)=O)cc2s1,-6,-13
CCN(CC)S(=O)(=O)c1ccc(C(=O)Oc2ccc(C(C)=O)cc2)cc1,-5,-10
COc1ccc(CCNC(=O)Nc2ccc3nc([C@H]4C[C@H](O)[C@@H](CO)O4)[nH]c3c2)cc1Br,-3,-10
Cc1cccc(C2c3[nH]c4ccccc4c3CCN2C(=O)c2sc(C)nc2C)c1 (stereo not drawn),2,8
CC1=NN(c2nc(C)cc(C)n2)C2=NC3=C(C(=O)CCC3)C(c3ccc(C#N)cc3)C12 (stereo not drawn),4,2
# Continued:
SMILES,NPYLR7 ag,NPYLR7 ag max-min
CCCc1c(C(=O)NCc2ccco2)cnn1C(C)(C)C,21,24
O=C1NCC2(CCCN(c3nc(-c4ccccc4)nc4ccccc34)CC2)O1 (stereo not drawn),4,3
CCOC(=O)C1CCCN(C(=O)c2cccc(Nc3c(Oc4cccc(Cl)c4)cnn(-c4ccc(F)cc4)c3=O)c2)C1 (stereo not drawn),11,12
CC1(C(=O)NS(=O)(=O)c2cccc(Cl)c2)CCN1C(=O)c1ccccc1 (stereo not drawn),1,-2
CCN(CC(=O)NC(C)C)C(=O)c1ccc(SC(F)(F)F)cc1,10,9
CC(C)c1ccc(Nc2ncc3c(n2)CCN(C(=O)Nc2ccc(OC(F)(F)F)cc2)C3)cc1,2,-1
COc1ccc2[nH]c3c(c2c1)CCN(C(=O)C(c1ccccc1)c1ccccc1)C3c1ccc(-c2ccccc2C(F)(F)F)o1 (stereo not drawn),15,8
Cc1noc(C)c1CC(=O)Nc1cccc(CN2CCCCC2)c1,3,3
COc1ccc(CN(CC2CCCO2)C(=O)c2ccccc2Cl)cc1OS(=O)(=O)c1ccc(NC(C)=O)cc1 (stereo not drawn),-1,4
N#CC1C(N)=NC(=S)C(C(N)=O)C12CCCCC2 (stereo not drawn),5,3
O=S(=O)(NN=C1CCSc2ccccc21)c1ccc(Br)cc1,7,4
Fc1ccc(-c2nc3ccccn3c2NCc2ccccc2)cc1,12,15
CC(=O)N1CCN(C(=S)c2ccc(C(C)(C)C)cc2)CC1,0,-3
Cc1cc(C(=O)N/N=C\c2cccc(O)c2)n[nH]1,5,10
COc1ccc(-c2ccccc2C(N)=O)cc1Cl,1,-1
CCOc1ccccc1C(=O)Oc1coc(CSc2nc(C)cc(C)n2)cc1=O,-14,-8
